Mtb growth = Mycobacterium tuberculosis H37Rv growth inhibition, cell based, confirmatory dose response (AID 1949); most inactive calls were filed without a number and no value below 0 was filed; inhibition, % at 10 µg/mL, or IC50 in µg/mL where a hit was titrated; 100,000 compounds, 1.6% hits;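 active = confirmed in a dose series; inconclusive = about 50% or more but not retested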;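 note: bacteria grown 7 days with compound before Alamar blue readout; 0% = untreated bacteria and 100% = reference antibiotic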
* hit, by the source's call; i = inactive; ? = inconclusive. Only part of the results is shown (hit frequency here may not be typical).

SMILES	Mtb growth
O=C(C(Sc1ccccc1)c1ccccc1)N1CCN(c2ccc([N+](=O)[O-])cc2)CC1 (stereo unspecified)	i
Cc1ccc(-n2c(N)cc(=O)nc2SCc2ccccc2)cc1	i
COC(=O)CCN(C(=O)c1ccc2c(c1)OCO2)c1ccccn1	i
COc1ccc(NC(=O)c2ccc(NCc3ccccc3)c([N+](=O)[O-])c2)cc1	2%
COc1ccc(-c2nn(-c3ccccc3)cc2CN(Cc2ccccc2)C(C)=O)cc1[N+](=O)[O-]	3%
COc1ccc(-c2noc(COc3ccc(Br)c(C)c3)n2)cc1OC	5%
COc1ccc(C(=O)NC(=S)NC23CC4CC(CC(C4)C2)C3)cc1Cl	2%
CC(=O)c1cccc(NC(=O)COc2ccc(S(=O)(=O)NC3CCCCC3)cc2Cl)c1	i
Cc1ccccc1OCC(=O)Nc1ccc(Oc2ccc3c(c2)C(=O)NC3=O)cc1	i
COCCNC(=O)c1ccccc1NC(=O)COc1ccccc1	i
COC(=O)c1ccc(NC(=O)COc2c(C)cc(C)cc2Br)cc1	i
O=C(CSc1ccc(Cl)cc1)Nc1cccc(-c2nc3ccccc3[nH]2)c1	i
Cc1ccc(C(=O)Nc2nc(-c3ccc(Br)cc3)cs2)o1	i
C=CCN1C(=O)C(Cc2cccc(Cl)c2)S/C1=N/N=C/c1ccco1 (stereo unspecified)	i
COC(=O)c1ccc(COn2c(=O)c(-c3cccc(Cl)c3)[n+]([O-])c3ccccc32)cc1	i
O=C(Nc1ccc(F)cc1)c1ccc(-c2ccccc2Cl)o1	1%
Cn1c(SCC(=O)NC(c2ccccc2)c2ccccc2)nnc1-c1ccc(NC(=O)c2ccc(Cl)cc2)cc1	i
O=C1NCC2=C1C(c1ccc(O)cc1)Nc1ccccc1N2 (stereo unspecified)	i
O=C(C1CCN(CC2CCCCC2)CC1)N1CCN(Cc2ccc3c(c2)OCO3)CC1	i
O=C(CN(c1cccc(C(F)(F)F)c1)S(=O)(=O)c1ccccc1)NC1CCCC1	4%
CNC(=S)Nc1ccc(OC)c(OC)c1	2%
Cn1c(SCC(=O)N(C2CCCCC2)C2CCCCC2)nnc1-c1cccs1	i
O=C(CSCc1ccccc1)Nc1ccc2c(c1)OCO2	i
CC(COc1ccc(C(C)C)cc1)NS(=O)c1ccc2ccccc2c1 (stereo unspecified)	?

Looked up one by one from above:
SMILES	Mtb growth
Cc1ccc(C(=O)Nc2nc(-c3ccc(Br)cc3)cs2)o1	i
Cn1c(SCC(=O)NC(c2ccccc2)c2ccccc2)nnc1-c1ccc(NC(=O)c2ccc(Cl)cc2)cc1	i
O=C1NCC2=C1C(c1ccc(O)cc1)Nc1ccccc1N2 (stereo unspecified)	i
CNC(=S)Nc1ccc(OC)c(OC)c1	2%
O=C(Nc1ccc(F)cc1)c1ccc(-c2ccccc2Cl)o1	1%
COC(=O)c1ccc(COn2c(=O)c(-c3cccc(Cl)c3)[n+]([O-])c3ccccc32)cc1	i
O=C(CN(c1cccc(C(F)(F)F)c1)S(=O)(=O)c1ccccc1)NC1CCCC1	4%
O=C(C1CCN(CC2CCCCC2)CC1)N1CCN(Cc2ccc3c(c2)OCO3)CC1	i

Remaining list, next part
SMILES	Mtb growth
NS(=O)(=O)c1ccc(NC(=S)NCc2ccccc2)cc1	i
CCCCOc1ccccc1NC(=O)C1CCCCC1	i
Cc1ccc(S(=O)(=O)N2CCN(C(=S)NC(=O)c3ccccc3)CC2)cc1	i
Cc1ccc(C(=O)Nc2ccc(Cc3ccncc3)cc2)cc1	i
COc1ccccc1NC(=O)CCN1C(=O)C2C3CCC(C3)C2C1=O (stereo unspecified)	i
COc1ccc(S(=O)(=O)Nc2ccccc2C(=O)N2CCCC2)cc1C	1%
CCCCC(=O)Nc1ccc(NCc2ccc(C)s2)cc1	i
CCC(=O)c1ccc(OC(=O)CCN2C(=O)c3ccccc3C2=O)cc1	i
Cc1c(C(=O)Nc2nnc(C3CCCCC3)s2)oc2ccccc12	i
CC1=Nc2ccccc2N=C(NC(=O)C(C)N2C(=O)c3ccccc3C2=O)C1c1ccccc1 (stereo unspecified)	i
CN(Cc1ccccc1)S(=O)(=O)c1ccc(I)cc1	i
COC(=O)c1sc(NC(=O)CCSc2ccccc2)c(C(=O)OC)c1C	3%
O=C(Nc1ccc(Cl)c(Cl)c1)Nc1nnc(-c2ccc(F)cc2)s1	i
O=c1[nH]c2ccccc2n1CCCN1CCOCC1	i
Cc1ccc([N+](=O)[O-])cc1S(=O)(=O)NCCC1=CCCCC1	3%
COc1ccc(C(C)NC=O)cc1OC (stereo unspecified)	2%
Cc1ccc2nc(NS(=O)(=O)c3ccc(Br)cc3)sc2c1	i
CCOCC(=O)Nc1nc2ccc(C)cc2s1	?
CCCCN1C(=O)c2ccc(C(=O)Nc3cc(Cl)ccc3C(=O)O)cc2C1=O	i
CC(=O)n1nc(-c2cccnc2)nc1N	i
Cc1ccc(CCC(=O)Nc2ccc(/C=C/c3ccccc3)cc2)o1	3%
CCOC(=O)C(C)N(c1ccc(Oc2ccccc2)cc1)S(C)(=O)=O (stereo unspecified)	i
CCc1c2c(nc3sc(C(=O)NCC4CCCO4)c(N)c13)CC(C)(C)CC2=O (stereo unspecified)	i
COC(=O)c1ccc(N2C(=O)CC(SCC(=O)Nc3ccc(OC)cc3)C2=O)cc1 (stereo unspecified)	i
CCC(CC)c1nnc(NC(=O)C(Cl)Cl)s1	i
COC(=O)c1ccccc1NC(=O)c1cc2nc(-c3ccco3)cc(C(F)(F)F)n2n1	i
O=C(Nc1ccc2c(c1)OCCO2)c1c(F)cccc1F	1%
COC(=O)C1CCN(C(=O)NC2CCCCC2)CC1	i
CCN1CCC(NC(=S)NCCc2ccc(OC)c(OC)c2)CC1	i
COc1ccc(NC(=O)c2ccc(C(C)C)cc2)cc1	i
COc1ccc(C)cc1NC(=O)NC1CCCCC1	i
N/C(=N\OC(=O)Cc1cccs1)c1ccccn1	i
COc1ccc(OC)c(NS(=O)(=O)c2ccc(OC)c(Br)c2)c1	i
O=C1CC(c2ccc(F)cc2)c2cc(Br)c3ccccc3c2N1 (stereo unspecified)	i
O=C(COc1cc(Cl)ccc1Cl)Nc1nnc(CC(=O)N2CCOCC2)s1	i
CCOc1ccc(N2C(=O)CC(N3CCN(c4ccccc4)CC3)C2=O)cc1 (stereo unspecified)	i
CC(C)OCCCNc1ncnc2ccc(Br)cc12	1%
CC(=O)Nc1ccc(-c2nnc(SCc3c(Cl)cccc3Cl)n2C)cc1	i
N#CCCSCc1ccc(C(=O)O)o1	i
CCC(C(=O)NCCCc1ccccc1)c1ccccc1 (stereo unspecified)	2%
Cc1ccc(OCCCC(=O)Nc2ccccc2Cl)cc1	i
COc1ccccc1NC(=O)COc1ccccc1C(=O)Nc1nccs1	i
Cc1cc(C)cc(NC(=S)NCCN2CCOCC2)c1	i
CCOc1ccccc1N1CCN(C(=S)NCc2ccco2)CC1	i
CC(C)(c1ccccc1)c1ccc(OCC(=O)Nc2ccc(C(=O)O)cc2)cc1	i
O=S(=O)(NCc1ccc(Cl)cc1)c1ccc(Br)s1	i
CC(=O)Oc1ccc2oc(-c3ccccc3)c(C(N)=O)c2c1	i
Cc1cccc2sc(NC(=O)Cc3cccs3)nc12	2%
COCCCn1c(-c2ccccc2Cl)n[nH]c1=S	i
COc1ccccc1NC(=O)CN(Cc1ccc(Cl)cc1)S(=O)(=O)c1ccccc1	i
O=C(CNC(=O)C1CCCCC1)Nc1nc(COc2ccccc2)cs1	i
Cc1ccc(-c2cc(C(F)F)n3ncc(C(=O)N4CC(C)OC(C)C4)c3n2)cc1 (stereo unspecified)	i
COc1ccc(OC)c(NC(=O)CNc2cccc(C)c2)c1	i
CC(NS(=O)(=O)c1ccccc1)C(=O)NCC1CCCO1 (stereo unspecified)	i
O=C1c2ccc([N+](=O)[O-])cc2C(=O)N1C1CC2CCC1C2 (stereo unspecified)	i
CCOC(=O)c1sc(NC(=O)COc2ccc(OCC)cc2)nc1C	i
COc1cccc(C(=O)Nc2nnc(C3CC3)s2)c1OC	i
O=C(COc1ccc(Cl)cc1Cl)Oc1ccccc1	i
CCS(=O)(=O)N1CCC(C(=O)Nc2ccc(C(C)=O)cc2)CC1	i
CC12CN(C(=O)c3ccco3)CC(c3ccccc3)(CN(C(=O)c3ccco3)C1)C2=O	i

Next compounds follow:
SMILES	Mtb growth
Cn1c(SCc2ccc(Cl)cc2Cl)nnc1-c1ccccn1	4%
COc1cc(OC)cc(C(=O)Nc2ccc(C)cc2NC(=O)c2cc(OC)cc(OC)c2)c1	i
COc1ccc(Cl)cc1NC(=S)NCCCN1CCCC1=O	i
Cc1ccc(NC(=O)COc2ccccc2)c(N)c1	3%
CCCCNCc1cc(OCC)c(OCC)cc1Br	i
O=C(NCCc1cccc(Cl)c1)c1ccccc1C(=O)NCCc1cccc(Cl)c1	i
O=c1c2c(-c3cccs3)csc2ncn1-c1ccccc1	i
Cc1ccn(-c2ccc([N+](=O)[O-])cc2)n1	0%
CCn1c(COc2ccc(Cl)c3cccnc23)nnc1SCC(=O)c1ccccc1	i
COc1cccc(N(CC(=O)NC2CCCC2)S(=O)(=O)c2ccccc2)c1	i
COc1ccccc1CC(=O)Nc1ccc(Cl)c(C(F)(F)F)c1	i
Cc1cccc(C)c1NS(=O)(=O)c1ccc(Br)s1	3%
CCOc1ccc(Cl)cc1S(=O)(=O)N1CCN(c2ccc(CC)cc2)CC1	i
C=CCNC(=S)NNC(=O)c1ccc2c(c1)c(C)c(C)n2Cc1ccccc1	i
COc1ccc(CNCCC(c2ccco2)c2ccccc2OC)cc1 (stereo unspecified)	2%
COc1ccc(N2CCN(C(=O)c3ccc4ccccc4n3)CC2)cc1	i
CCOc1cc(C(=O)Nc2ccc(OC)cc2)c2ccccc2n1	i
CC(=O)Nc1ccc(NC(=O)CN(C2CCCCC2)S(C)(=O)=O)cc1	i
Cc1c(NC(=S)N2CCN(c3cccc(Cl)c3)CC2)c(=O)n(-c2ccccc2)n1C	i
CCOc1ccccc1NC(=O)Nc1ccc(Cl)cc1F	27%
N#Cc1cc2c(=O)n3ccccc3nc2n(CCc2ccccc2)c1=NC(=O)c1ccccc1F	i
O=C(c1ccc2nc(-c3ccco3)c(-c3ccco3)nc2c1)N1CCN(c2ccccc2)CC1	i
Cc1ccccc1OCc1nc(-c2ccccc2)no1	i
CC12CC3CC(C)(C1)CC(CNCc1ccccc1O)(C3)C2	2.9µg/mL*
NC(=O)C(=O)Nc1ccc(F)cc1F	i
CNC(=S)NNC(=O)Cc1ccc(O)cc1	i
O=C(C1CCN(CC2CC=CCC2)CC1)N(CCc1ccccc1)Cc1ccccc1 (stereo unspecified)	10%
CCOC(=O)c1c(NC(=O)c2ccc(C(C)C)cc2)sc(C(C)=O)c1C	i
O=C(COc1ccc([N+](=O)[O-])cc1)Nc1ccc(N2CCN(Cc3ccccc3Cl)CC2)cc1	i
COc1ccc(NC(=O)CSc2ccc(Cl)cc2)c(OC)c1	26%
COc1ccc(Br)cc1CN1CCN(C(=O)c2cccc(OC)c2OC)CC1	i
Cc1ccc2oc(C(=O)Nc3ccc(Cl)c(C(F)(F)F)c3)c(C)c2c1	i
COc1ccc(Cl)cc1Nc1c([N+](=O)[O-])c(=O)oc2ccccc12	i
Cc1ccc(N2C(=O)CC(N3CCN(c4cccc(Cl)c4)CC3)C2=O)cc1Cl (stereo unspecified)	i
COc1ccc(N2CC(C(=O)Nc3ccccc3I)CC2=O)cc1 (stereo unspecified)	i
CCC(=O)Nc1nc2nc(C(C)(C)C)cc(=O)n2[nH]1	0%

Filtered by structure: the compounds so far with a cyano group.
SMILES	Mtb growth
N#CCCSCc1ccc(C(=O)O)o1	i
N#Cc1cc2c(=O)n3ccccc3nc2n(CCc2ccccc2)c1=NC(=O)c1ccccc1F	i

Next part
SMILES	Mtb growth
Cc1ccc(CNC(=O)C2CCN(C(=O)Cc3ccccc3)CC2)cc1	0%
O=S(=O)(c1ccc(-c2ccccc2)cc1)N1CCCC1	i
C=CCn1c(SCC(=O)NCc2ccco2)nc2sc(CC)cc2c1=O	0%
CN(C)S(=O)(=O)N1CCN(C(=O)N2CCCCCC2)CC1	i
O=C(COc1cc2oc(=O)c3c(c2cc1Cl)CCC3)c1ccc(Cl)s1	i
COc1ccc(CCNS(=O)(=O)c2ccc3c(c2)OCCO3)cc1	i
CCOc1ccccc1NC(=O)C1C2C=CC(C2)C1C(=O)O (stereo unspecified)	i
CCSCCOC(=O)C1=C(C)NC2=C(C(=O)CC(c3cccs3)C2)C1c1ccsc1 (stereo unspecified)	i
Cc1ccc(C)c(NCC(=O)c2ccc(Cl)cc2)c1	i
NCCNCCOCCOc1ccc(Cl)c(Cl)c1	2%
COC(=O)COc1ccc(NC(=O)c2ccccc2C)cc1	<0.1µg/mL*
COc1ccc(C2(C(=O)O)CCCC2)cc1OC	6%
O=C(NCCSCc1ccco1)Nc1ccccc1	i
Cc1ccc(CN2C(=O)c3ccc([N+](=O)[O-])cc3C2=O)cc1	i
CCOc1ccc(-n2c(CCc3ccccc3)nnc2SCC(=O)N2CCOCC2)cc1	i
Cc1ccc2oc(C(=O)N(Cc3cccs3)C3CCS(=O)(=O)C3)c(C)c2c1 (stereo unspecified)	i
C=CCn1c(-c2ccccc2O)n[nH]c1=S	i
CCC(NC(=O)c1ccccc1NC(=O)c1ccccc1)C(=O)OC (stereo unspecified)	32%
Cc1cc(C)n(C(=O)C23CC4CC(CC(C4)C2)C3)n1	0%
COC(=O)c1c(NC(=O)c2ccc3c(c2)OCO3)sc(C(=O)N(C)C)c1C	i
O=[N+]([O-])c1cccc(NC(=S)Nc2ccn(Cc3c(F)c(F)c(F)c(F)c3F)n2)c1	i
Cc1cccnc1NC(=O)c1ccccc1-c1ccccc1C(=O)Nc1ncccc1C	i
CCCCOc1ccc(C(=O)NCc2ccccn2)cc1	i

Another view of part of the listing above:
> Cc1cc(C)n(C(=O)C23CC4CC(CC(C4)C2)C3)n1
  Mtb growth: 0%

> COC(=O)c1c(NC(=O)c2ccc3c(c2)OCO3)sc(C(=O)N(C)C)c1C
  Mtb growth: i

> O=[N+]([O-])c1cccc(NC(=S)Nc2ccn(Cc3c(F)c(F)c(F)c(F)c3F)n2)c1
  Mtb growth: i

> Cc1cccnc1NC(=O)c1ccccc1-c1ccccc1C(=O)Nc1ncccc1C
  Mtb growth: i

Screening data as filed in PubChem.
